Screening data from PubChem.
WNV NS2B-NS3 inh: inhibitors of WNV NS2B-NS3 protease, primary screen, biochemical, fluorogenic substrate | Genome polyprotein (West Nile virus), P06935 | 65,000 tested, 0.18% active | z-score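 (tested at a level between 10 and 100 µM)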 | fluorogenic substrate Ex360/Em465; stronger effect = lower value | AID 577, 2007;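 active = z-score at -3 or under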;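 note: score is relative to mean and spread of the compound wells of a plate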
Target sequence (P06935 1371-1501 limits assumed): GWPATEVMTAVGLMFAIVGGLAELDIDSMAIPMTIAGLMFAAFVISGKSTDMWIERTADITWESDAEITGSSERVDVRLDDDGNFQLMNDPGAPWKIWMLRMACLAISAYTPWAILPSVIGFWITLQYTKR
Target sequence (P06935 1502-1679 limits assumed): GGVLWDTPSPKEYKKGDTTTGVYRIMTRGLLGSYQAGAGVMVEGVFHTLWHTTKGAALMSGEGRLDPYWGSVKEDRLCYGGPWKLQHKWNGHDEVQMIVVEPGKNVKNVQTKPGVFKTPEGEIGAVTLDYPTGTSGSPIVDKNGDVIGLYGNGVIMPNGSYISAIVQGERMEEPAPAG
MT1-MMP reporter: inhibitors of MT1-MMP promoter transcription, cell-based, luciferase reporter, luminescence (AID 618); calls from a first round at 10 µM; hits with a dose series show EC50 in µM; 87,000 tested, 0.62% active; MT1-MMP promoter luciferase reporter cells, luminescence;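 active = over half of the reporter light lost at 10 µM or EC50 under 50 µM; inactive = the rest and hits that failed the dose series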;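 note: actives suppress MT1-MMP promoter-driven transcription so potencies describe inhibitors; HT1080 fibrosarcoma cells; overnight exposure; toxic or luciferase-blocking compounds were not removed from the actives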
Hsc70 ATP site: Hsc70 inhibitors, probe displacement, primary screen, biochemical, fluorescence polarization (AID 568) | Heat shock cognate 71 kDa protein (Homo sapiens) | Hsc70 fluorescence polarization, probe displacement; higher % means a stronger effect; strong numbers were not always called active | one-dose displacement, % at 20 µM; IC50 in µM for titrated hits | 83,000 tested, under 10 active;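 active = displacement above 50% without optical interference and an IC50 on retest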;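 note: ATPase domain with a fluorescein-tagged ATP probe; 0% = vehicle and 100% = excess ADP; read after one hour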
Starred values were filed as active, the others as inactive; i = inactive; . = not tested or not shown. An excerpt; rates above refer to the full screens.

SMILES	WNV NS2B-NS3 inh	MT1-MMP reporter	Hsc70 ATP site
COc1ccc(C(=O)NC2CCCCC2)cc1S(=O)(=O)N1CCCC1	0.56	i	-7.2%
O=C(Nc1cccc2ccccc12)N1CCN(c2ccccc2)CC1	0.83	i	0.0%
O=C(Cn1cc(C(F)(F)F)ccc1=O)N1CCN(S(=O)(=O)c2ccccc2)CC1	-0.28	i	2.7%
O=C(Nc1ccc(Br)cc1)C1CC=CCC1C(=O)OCC1CCCO1 (stereo not given)	.	i	-6.1%
CCN(CC(=O)Nc1ccccc1Br)Cc1nc2ccccc2c(=O)[nH]1	.	i	1.6%
CCOc1ccc2c(c1)C(c1ccc(C)cc1)=NNC(c1ccc(OC)cc1)=N2	.	i	0.4%
COCCNC(=O)C(c1ccncc1)N(C(=O)Cn1nnc2ccccc21)c1ccc(OC)cc1 (stereo not given)	-0.48	i	-1.8%
O=C(C1=C(O)C(=O)N(CCN2CCOCC2)C1c1cccs1)c1cc2ccccc2o1 (stereo not given)	-0.65	i	-9.2%
CN(CC(=O)NCc1ccncc1)S(=O)(=O)c1ccc(F)cc1	.	i	-4.8%
O=c1oc(-c2cccs2)nc2sc3c(c12)CCCCC3	-0.61	i	0.2%
CC(=O)NC(CCS(C)(=O)=O)C(=O)Nc1cccc(Cl)c1Cl (stereo not given)	0.59	i	-0.1%
Fc1ccccc1N1CCN(C2CCN(Cc3c[nH]c4ccccc34)CC2)CC1	0.34	i	-0.2%
COc1ccc(-c2nc(C(N)=O)c3[nH]c(=O)n(-c4cccc(C)c4)c3n2)c(OC)c1	-0.39	i	-2.2%
CC(O)c1nc2ccccc2n1C/C=C/c1ccccc1 (stereo not given)	0.4	i	6.9%
CC(c1nnc(Sc2nnnn2-c2ccccc2)n1-c1ccc(F)cc1)N(C)C (stereo not given)	0.5	i	-3.6%
Cc1sc2ncnc(OCC(=O)N3CCN(S(=O)(=O)c4ccccc4)CC3)c2c1C	0.99	i	0.2%
Cc1ccc(C(=O)CSc2nc(C)cc(=O)[nH]2)cc1	.	i	5.5%
O=C(O)c1cccc(Nc2ncnc3ccccc23)c1	0.81	i	-2.7%
CC(=O)C1=C(O)C(=O)N(CCc2c[nH]c3ccccc23)C1c1cccc(O)c1 (stereo not given)	0.28	i	-1.7%
COC(=O)C1=C(C)OC(N)=C(C#N)C1c1cc(OC)c(OCC(N)=O)cc1Cl (stereo not given)	-0.48	i	-2.1%
CN(C)c1nc(C(=O)NN)nc(N(C)C)n1	.	i	0.4%
CC(C)(C)c1ccc(-c2nc(-c3ccncc3)no2)cc1	-1.24	6.13µM*	3.6%
CCCc1nc2ccccc2n2cc3c(=O)n(C)c(=O)n(C)c3c12	0.64	i	-2.5%
CCN(CC)S(=O)(=O)c1ccc(NS(=O)(=O)c2cccc(C)c2)cc1	-0.96	i	-3.5%
Cc1cccn2c(=O)c3cc(C#N)c(=O)n(CCCN4CCOCC4)c3nc12	1	i	-1.1%
O=C(c1ccco1)c1cc2c(ccc3ccccc32)oc1=O	.	i	-3.0%
COc1ccc(CC(=O)N2CCOCC2)cc1	.	i	3.9%
COC(=O)c1ccc2nc(C(F)(F)F)[nH]c2c1	-0.54	i	-2.8%
Cc1cc(C)n2nc(SCCC(=O)NCCc3ccccc3)nc2n1	.	i	-1.8%
COc1ccc(NC(=O)CSc2nnc(-c3cccs3)n2C)cc1OC	0.78	i	-6.2%
O=C(NCCc1ccc(F)cc1)c1cccs1	.	i	4.6%
Nc1nc(-c2ccco2)c(-c2ccco2)s1	-1.07	i	-6.9%
O=C(CN(C(=O)Cn1nnc(-c2cccs2)n1)c1ccc2c(c1)OCCO2)NCC1CCCO1 (stereo not given)	.	i	4.4%
O=C(CN1CCN(CC(=O)Nc2ccccn2)CC1)Nc1ccccn1	-0.52	i	2.8%
Cc1ccc(C)c(N(CC(=O)NCc2ccc3c(c2)OCO3)C(=O)CCC(=O)Nc2ccccn2)c1	-0.81	i	-3.8%
CCCCn1c(NCc2ccc3c(c2)OCO3)nc2ccccc21	.	i	-1.6%
c1ccc(CCN2CCN(c3ncnc4c3cnn4-c3ccccc3)CC2)cc1	0.09	i	-3.6%
Cc1nnc(SCCn2c(N3CCN(Cc4ccccc4)CC3)nc3c2c(=O)[nH]c(=O)n3C)s1	0.28	i	-1.6%
c1nc(N2CCOCC2)c2[nH]cnc2n1	-1.31	i	-3.7%
CCNS(=O)(=O)c1c(C)cc(N2CCCC2=O)cc1C	-0.02	i	2.6%
CCOC(=O)CNC(=O)CSc1nnc(COc2ccc(Cl)cc2)n1CC	-1.35	i	-0.3%
CC1(C)NC(=O)N(CC(O)COc2ccccc2-c2ccccc2)C1=O (stereo not given)	-0.82	i	2.9%
CC1(C)Cc2c(sc3c4nnnn4c4nnnn4c23)CO1	0.04	i	0.2%
COc1cc(-c2nc(S(=O)(=O)c3ccc(C)cc3)c(N3CCOCC3)o2)cc(OC)c1OC	0.07	i	-3.7%
O=C(Nc1cc(C(F)(F)F)ccc1N1CCCCC1)c1ccco1	-1.54	i	-2.7%
O=C(CSc1nnc(Cc2cccs2)n1-c1ccccc1)NCc1ccc2c(c1)OCO2	0.63	i	-0.3%
COc1ccc(C2(C(=O)Nc3cc(C)on3)CCOCC2)cc1	0.28	i	4.8%
CCOC(=O)c1cc2c(=O)n3ccccc3nc2n(CCOC)c1=NC(=O)c1ccncc1	.	i	5.9%
N#Cc1ccc(OCc2nnc(SCC(=O)N3CCCc4ccccc43)n2-c2ccccc2)cc1	2.02	i	1.0%
O=C(Nc1ccc(S(=O)(=O)NCc2ccco2)cc1)c1ccc2ccccc2n1	0.36	i	1.4%
O=C(CSc1nc2ccccc2o1)Nc1ccc(N2CCOCC2)c(Cl)c1	-0.36	i	3.5%
COC(=O)CC1(c2cccc3ccccc23)C(=O)c2ccccc2C1=O	.	i	3.7%
Nc1cc(=O)[nH]c(=O)n1Cc1ccco1	-0.74	i	0.7%
CCOC(=O)N1CCN(Cc2nc3c(c(=O)n(C)c(=O)n3C)n2Cc2ccccc2C)CC1	0.56	i	0.3%
CN1C(=O)CC(N2CCN(C(c3ccccc3)c3ccccc3)CC2)C1=O (stereo not given)	-1.21	i	4.0%
O=C(CNC(=O)c1cccs1)NC1=NCCS1	0.33	i	1.8%
Cc1cc(N2C(=O)C3C4C=CC(C4)C3C2=O)ccc1Br (stereo not given)	0.74	i	-3.7%
NS(=O)(=O)c1ccc(NCc2c(F)cccc2Cl)cc1	-0.46	i	0.8%
CC1CN(C2CCCCC2)c2nc3c(c(=O)n(C)c(=O)n3C)n2C1 (stereo not given)	-0.15	i	2.2%
O=C(Nc1nc2ccccc2[nH]1)C12CC3CC(CC(C3)C1)C2	.	i	-3.1%

Next section:
SMILES	WNV NS2B-NS3 inh	MT1-MMP reporter	Hsc70 ATP site
O=C(CN(CCc1ccccc1)C(=O)CNS(=O)(=O)c1ccccc1)NCC1CCCO1 (stereo not given)	0.22	i	2.4%
COc1ccc(Cl)cc1NC(=O)COC(=O)/C=C/c1c(C)nn(C2CCS(=O)(=O)C2)c1Cl (stereo not given)	.	i	2.2%
CCN(CC)Cc1c(-c2ccccc2)[nH]c2ccc(C)cc2c1=O	.	i	3.1%
CC1CCCCN1S(=O)(=O)c1ccc(S(=O)(=O)N(Cc2ccccc2)Cc2ccco2)cc1 (stereo not given)	.	i	2.2%
Cc1ccc(C)c(SCC(=O)OCC(=O)c2ccco2)c1	0.2	i	0.5%
COc1ccc(CNc2oc(C)nc2C#N)cc1	-1.01	i	-1.2%
CCn1c(SCC(=O)NCc2ccc3c(c2)OCO3)nnc1-c1c[nH]c2ccccc12	1.91	i	-1.3%
COc1cccc(NC(=O)Nc2ccc3c(c2)nnn3C)c1	.	i	-3.2%
Cn1c(=N)n(CC(O)c2ccco2)c2ccccc21 (stereo not given)	1.65	i	6.0%
COCCCN1C(=O)C(O)=C(C(C)=O)C1c1ccccn1 (stereo not given)	0.39	i	0.9%
N/C(=N\OC(=O)c1ccco1)c1ccccc1	.	i	-2.5%
CC(C)(NCc1ccccc1Cl)C(=O)O	-0.71	i	-1.0%
CC(C)C(=O)Nc1sc2c(c1-c1nc3ccccc3[nH]1)CCCC2	.	i	-4.0%
Cn1c(C(=O)N2CCN(c3ccc(Cl)cc3)CC2)cc2c(=O)n(C)c3ccccc3c21	-0.00971	i	4.8%
Cc1cc(C)nc(N2CCN(c3ncnc4c3oc3ccccc34)CC2)n1	0.31	i	-0.1%
Cc1cc(C(=O)Cn2nnc3ccccc3c2=O)c(C)n1Cc1cccs1	-1.45	i	-5.9%
Cc1cccc(-n2ccnc2SCC(=O)Nc2nccs2)c1C	1.76	i	-4.3%
CCOc1ccccc1C(=O)N1CCN=C1SCc1cccnc1	2.08	i	4.0%
CCCC1CC(C)(c2csc(Nc3ccc(OCC)cc3)n2)OC1=O (stereo not given)	.	i	1.7%
CCc1cc(=O)oc2cc(OCC(=O)N3CCCc4ccccc43)ccc12	-0.58	i	2.4%
O=C(NCC1COc2ccccc2O1)c1ccccc1 (stereo not given)	1.7	i	2.0%
O=C(NCc1ccc2c(c1)OCO2)c1ccc(COc2cc(Cl)ccc2Cl)o1	.	i	6.0%
CCOC(=O)c1[nH]c(C)c(C(=O)NC(C)(C)C)c1C	-0.36	i	-7.4%
CCOc1ccc2[nH]c(=O)c(CN(CCO)C(c3nnnn3C3CCCCC3)C(C)C)cc2c1 (stereo not given)	-0.58	i	2.7%
O=C(c1c[nH]c2ccccc12)C(O)C(c1ccccc1)N1CCOCC1 (stereo not given)	-0.27	i	5.2%
Cc1nc2c(C)cccn2c1/C(O)=C1\C(=O)C(=O)N(CCN2CCOCC2)C1c1ccncc1 (stereo not given)	0.31	i	4.9%
CC1=C(C(=O)Nc2ccccc2)C(c2ccco2)C(C#N)=C(SCC(N)=O)N1 (stereo not given)	.	i	-5.1%
CCOC(=O)N1CCc2c(sc(NC(=O)c3ccc(S(=O)(=O)N4CCCC4)cc3)c2C#N)C1	-0.98	i	-19.3%
CC(C)(C)C(=O)N1CCc2cc(-c3csc(N)n3)ccc21	.	1.36µM*	3.6%
CC(NC(=O)c1cccnc1)C(c1cccs1)N1CCN(C)CC1 (stereo not given)	0.66	i	-7.0%
N#Cc1ccc2ccn(CC(=O)NCc3ccccc3)c2c1	-0.36	i	-0.4%
Cc1cc(C)c2cc(C#N)c(SCC(=O)NCC3CCCO3)nc2c1 (stereo not given)	-0.45	i	-17.5%
NC(=O)CSc1nnc(Cc2csc(Nc3ccc(F)cc3)n2)n1Cc1ccccc1	.	i	-2.6%
Cc1occc1C(=O)NCc1ccccc1F	-0.2	i	-2.1%
CCS(=O)(=O)Nc1cc(C(=O)OC)ccc1C(=O)OC	.	i	0.8%
O=C(CC1CCCCC1)NCc1ccccn1	-0.04	i	-3.8%
COCCOC(=O)c1[nH]c2c(c1C)C(=O)CC(c1cc(OC)ccc1OC)C2 (stereo not given)	-0.3	i	0.1%
CN1CCN(C(=O)c2ccc(S(=O)(=O)c3ccc(Br)cc3)cc2)CC1	0.19	i	5.9%
Cc1cc(C)c2c(=O)c3c(oc2c1)C(=O)N(CCO)C3c1cccc(O)c1 (stereo not given)	-0.61	i	-7.9%
Cc1ccc(-c2nc(CS(=O)(=O)CC(=O)N3CC(C)CC(C)C3)c(C)o2)cc1 (stereo not given)	-0.69	i	-1.0%

A section of the results above, for reference:
SMILES	WNV NS2B-NS3 inh	MT1-MMP reporter	Hsc70 ATP site
O=C(CC1CCCCC1)NCc1ccccn1	-0.04	i	-3.8%
COCCOC(=O)c1[nH]c2c(c1C)C(=O)CC(c1cc(OC)ccc1OC)C2 (stereo not given)	-0.3	i	0.1%
CN1CCN(C(=O)c2ccc(S(=O)(=O)c3ccc(Br)cc3)cc2)CC1	0.19	i	5.9%
Cc1cc(C)c2c(=O)c3c(oc2c1)C(=O)N(CCO)C3c1cccc(O)c1 (stereo not given)	-0.61	i	-7.9%
Cc1ccc(-c2nc(CS(=O)(=O)CC(=O)N3CC(C)CC(C)C3)c(C)o2)cc1 (stereo not given)	-0.69	i	-1.0%

Continuation.
SMILES	WNV NS2B-NS3 inh	MT1-MMP reporter	Hsc70 ATP site
CC(=O)N1CCCc2cc(S(=O)(=O)N3CCc4ccccc4C3)ccc21	2.04	i	0.2%
COc1ccc(NS(=O)(=O)c2ccc(Oc3ncccn3)cc2)cc1	-0.6	i	5.3%
CS(=O)(=O)N1CCN(c2ccccc2F)CC1	-0.54	i	4.3%
N#Cc1cccc(-c2nnc(SCc3ccccc3C#N)o2)c1	-1.35	i	1.9%
COc1ccc2sc(N3C(=O)C4CC=C(C)CC4C3=O)nc2c1 (stereo not given)	-0.98	i	2.7%
CCc1c(C(=O)NC2CCCC2)csc1C	-0.67	i	5.0%

Given with each value named: part of the list above.
COc1ccc(NS(=O)(=O)c2ccc(Oc3ncccn3)cc2)cc1
  WNV NS2B-NS3 inh = -0.6
  MT1-MMP reporter = i
  Hsc70 ATP site = 5.3%

CS(=O)(=O)N1CCN(c2ccccc2F)CC1
  WNV NS2B-NS3 inh = -0.54
  MT1-MMP reporter = i
  Hsc70 ATP site = 4.3%

N#Cc1cccc(-c2nnc(SCc3ccccc3C#N)o2)c1
  WNV NS2B-NS3 inh = -1.35
  MT1-MMP reporter = i
  Hsc70 ATP site = 1.9%

COc1ccc2sc(N3C(=O)C4CC=C(C)CC4C3=O)nc2c1 (stereo not given)
  WNV NS2B-NS3 inh = -0.98
  MT1-MMP reporter = i
  Hsc70 ATP site = 2.7%
